# Bioassay records from PubChem BioAssay.
# Prx2 Sm inh: Schistosoma mansoni Prx2 inhibition. S. mansoni Prx2 activity coupled to TGR/GSH (TGR is thioredoxin glutathione reductase), NADPH fluorescence loss, qHTS; some inactives read as strong as hits. Potency, µM. actives 0.07% (n = 65,000). AID 448; active means full or partial inhibition curve with a strong effect at the top dose; inconclusive means weaker partial or single-point curve; inactive means no accepted curve; note: series up to 57 µM; many of its hits are not listed in these tables
#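 Activity is read as the drop in NADPH fluorescence (365/450 nm), recorded every 30 sec for 8 min after H2O2 addition. Prx2 is coupled to TGR-driven NADPH oxidation through glutathione, in phosphate buffer pH 7.4.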
# LT uptake inh: inhibitors of anthrax lethal toxin internalization | Cells, anthrax lethal toxin internalization, FRET ratio (460/530) | Potency, µM (doses to about 40 µM), without a hit: at the highest dose activity change, negative = inhibition, most hits filed as inhibitors | actives 0.67% (n = 70,000) | AID 912; active = well fitted falling ratio curve with the 530 nm signal flat; inconclusive = other ratio curves, or a change in one channel alone; inactive = flat curves in the ratio and both channels; the % refers to the ratio; note: % is set by controls: 0 for no effect and ±100 for the full control effect; nearly all actives have a fitted effect of over 50% in size; tested in ME-180 cells; beta-lactamase reporter
# * hit, by the source's call; ? = inconclusive; nt = not tested or not shown; [ ] = dose if it differs, or a comment. Potency is the fitted concentration of half-maximal effect.
# Fields – LT uptake inh, Prx2 Sm inh
> CS(=O)(=O)N(CC(=O)N1CCN(c2cccc(Cl)c2)CC1)C1CCCCC1
→ -18%, >57
> Nn1nnc2ccccc21
→ 4%, >57
> CC1CCN(Cc2nc3c(c(=O)n(C)c(=O)n3C)n2Cc2cccc3ccccc23)CC1
→ 14%, >57
> CO[C@@H]1COC(=O)CC=C[C@@H](C)[C@@H]2C=C[C@H](O)[C@@H](COC(=O)C/C=C\[C@H]1C)O2
→ -1%[8 µM], nt
> c1csc(-c2nn3c(Cn4cnc5ccccc54)nnc3s2)c1
→ ?, >57
> O=C(CN1CCOCC1)n1c2ccccc2c2ccccc21
→ 2%, >57
> COc1ccc(-c2cn3c4c(sc3n2)CCCC4)cc1
→ ?, >57
> Cc1nn(CC(O)Cn2cnc3c2c(=O)n(C)c(=O)n3C)c(C)c1Br (stereo not given)
→ nt, >57
> CC1=CC(C)(C)N2C(=O)C3(SCC(=O)N3c3ccc(O)cc3)c3cc(C)cc1c32 (stereo not given)
→ ?, >57
> COc1ccc(C)cc1NC(=O)c1cc2ccccc2o1
→ ?, >57
> CCN(CC(=O)Nc1c(C(=O)OC)[nH]c2ccc(C)cc12)c1ccc2c(c1)OCO2
→ -36%, >57
> COc1cc(OC)cc(C(=O)Nc2ncc3c(n2)CC(C)CC3=O)c1 (stereo not given)
→ -11%, >57
> Cn1c(=O)[nH]c(=O)c2c1nc(NCCCn1ccnc1)n2CCOc1ccccc1
→ 0%, >57
> Cc1cccc(C)c1NC(=O)C1(N(Cc2ccco2)C(=O)c2ccccn2)CCCC1
→ -5%, >57
> O=C(COC(=O)CNC(=O)C1CCCCC1)Nc1ccc(Cl)cn1
→ 26%, >57
> CCOC(=O)N1CCC(NC(=O)CCS(=O)(=O)c2ccc3c(c2)CCN3C(C)=O)CC1
→ 10%, >57
> Cc1ccc(C)c(CSc2nnc(-c3cccnc3)o2)c1
→ -7%, >57
> COC(=O)C1(CC(C)C)C=C2C(=C(c3ccccc3)C(=O)C2C)CN1 (stereo not given)
→ 1%, >57
> CCOC(=O)C1CCN(c2c(N(C)Cc3ccco3)c(=O)c2=O)CC1
→ 4%, >57
> COC(=O)C1CCN(C(=O)N2CCOCC2)CC1
→ 9%, >57
> O=C(CSc1nnnn1C1CCCC1)Nc1ccc2c(c1)OCCO2
→ 9%, >57
> Cc1ccc2c(c1)C1OCCC1C1N2C(=O)C2C(C(=O)O)C3C=CC21O3 (stereo not given)
→ -1%, >57
> O=C(CC1CCCCC1)c1c(O)c2ccccc2oc1=O
→ -6%, >57
> CN1CCN(Cc2cc(=O)oc3cc4c(cc23)CCC4)CC1
→ -10%, >57
> O=C1c2ccccc2C(Nc2ccc3c(c2)OCCO3)N1c1ccc(Cl)cn1 (stereo not given)
→ ?, >57
> CCOC(=O)OCC1OC(c2cc(C)cc(C)c2)C=CC1OC(=O)OCC (stereo not given)
→ -6%[8 µM], nt
> Cc1csc(C(C#N)C(=O)c2ccc(S(=O)(=O)N3CCCC3)cc2)n1 (stereo not given)
→ -7%, >57
> Cc1ccc(-c2cc(=O)[nH][nH]2)c(C)c1
→ -9%, >57
> O=C(c1cnccn1)N1CCC[C@@]2(CCN(C(c3ccccc3)c3ccccc3)C2)C1
→ 1%, >57
> COC(=O)[C@@H]1CC[C@H](C)[C@@H](c2ccc(C)cc2)N1C(=O)c1ccc(/C=N\O[C@@H]2O[C@H](COC(C)=O)[C@H](OC(C)=O)[C@H](OC(C)=O)[C@H]2OC(C)=O)cc1
→ 1%[1.6 µM], nt
> COc1ccc(C(=O)N2CCCC(c3nc(-c4cccs4)no3)C2)cc1OC (stereo not given)
→ -2%, >57
> O=C(NC1CCCCNC1=O)c1ccc(Cl)cc1 (stereo not given)
→ 6%, >57
> COc1ccccc1-n1cnc2cc(C(=O)NCc3ccco3)ccc21
→ -3%, >57
> CS(=O)(=O)N1CCCC(C(=O)NCc2cccs2)C1 (stereo not given)
→ 6%, >57
> Cn1c(C(=O)N(Cc2ccccc2)Cc2ccccn2)cc2sccc21
→ -11%, >57
> Cc1cc(NS(=O)(=O)c2ccccc2)n(-c2ccccc2)n1
→ -5%, >57
> Cc1ccc(C(=O)OCC(=O)Nc2sc3c(c2C#N)CCCCC3)cc1NC(=O)c1ccco1
→ ?, >57
> CCOc1ccccc1Oc1c(C)oc2cc(OC(=O)N3CCOCC3)ccc2c1=O
→ ?, >57
> COc1ccc(-n2nnnc2SCC(=O)Nc2nnc(C)s2)cc1OC
→ -9%, >57
> COc1ccc2[nH]cc(CCNc3ccnc(-c4ccc(N(C)C)cc4)n3)c2c1
→ 7.9µM*, >57
> Oc1ccc2ccccc2c1C=NCc1cn2ccsc2n1
→ ?, >57
> CC1(C)CC(=O)c2cnc(N3CCc4ccccc4C3)nc2C1
→ -9%, >57
> CC(=O)Nc1ccc(S(=O)(=O)Nc2cccc(NC(=O)C(C)(C)C)c2)cc1
→ ?, >57
> OC(COCc1ccccc1)CN1CCCC1 (stereo not given)
→ 2%, >57
> CCOC(=O)Nc1cccc(NC(=O)c2cc(OC)cc(OC)c2)c1
→ -14%, >57
> CC(C)NC1(C(N)=O)CCN(Cc2ccccc2)CC1
→ -9%[8 µM], >57
> COc1ccc(F)cc1S(=O)(=O)Nc1ccc(C)cc1
→ ?, >57
> O=C(Cc1cccs1)N1CCC(c2nc3c(nnn3Cc3ccc(F)cc3)c(=O)[nH]2)CC1
→ ?, >57
> Cc1cc2ncc(-c3ccc(Cl)cc3)c(N)n2n1
→ ?, >57
> CCOC(=O)c1cnc(-c2cccc(OC)c2)[nH]c1=O
→ nt, >57
> CCOC(=O)CCn1nc(-c2ccccc2)cc1N
→ 3%, >57
> COc1ccc(CCn2c(=N)c(C(=O)N3CCN(C)CC3)cc3c(=O)n4ccccc4nc32)cc1
→ ?, >57
> CCCC(=O)c1cc(F)c(N2CCN(CCC#N)CC2)cc1C
→ -10%, >57
> O=C(CN1CCc2ccccc21)Nc1ccc2c(c1)OCO2
→ ?, >57
> O=S(=O)(NCCNS(=O)(=O)c1cccs1)c1cccs1
→ 0%, >57
> O=C(Nc1ccc(Cl)cc1)NC1(C(=O)NCCCN2CCOCC2)CCCCC1
→ 0%, >57
> CCN(C(=O)c1cccs1)c1nnc(-c2ccncc2)s1
→ 4%, >57
> O=C(O)C1C2C=CC(C2)C1C(=O)NCc1ccccn1 (stereo not given)
→ ?, >57
> CCOC(=O)C1=C(C)Nc2nc(C)nn2C1c1ccc(OCC)c(OC)c1 (stereo not given)
→ 11%, >57
> Cc1cc(N2C(=O)C3CCCN3C2c2ccccc2)no1 (stereo not given)
→ 2%, >57

# The results go on:
# Fields – LT uptake inh, Prx2 Sm inh
> O=C(NCC1CCCO1)c1ccc(COc2ccc(F)cc2)o1 (stereo not given)
→ 3%, >57
> COc1ccc(NC(=O)N2CC[C@@]3(CCCN(C(=O)c4ccncc4)C3)C2)cc1
→ 2%, >57
> COc1ccc(OC)c(C2=Nn3c(nnc3-c3cccc(OC(C)C)c3)SC2)c1
→ nt, >57
> COC(=O)c1[nH]c2ccc(C)cc2c1NS(=O)(=O)c1ccc(F)cc1
→ ?, >57
> COc1cccc(-c2nc3n(n2)C(c2cccs2)C(C(=O)Nc2cccnc2)=C(C)N3)c1 (stereo not given)
→ -13%, >57
> COc1ccccc1-c1nnc(NC(=O)c2ccc(S(=O)(=O)N(C)C)cc2)o1
→ -5%, >57
> CCO[Si](CCCN)(OCC)OCC
→ 8%, nt
> CCOC(=O)c1ccc(NC(=O)C2CCN(S(=O)(=O)CC)CC2)cc1
→ 9%, >57
> O=C(On1c(-c2ccccc2)nc2ccccc2c1=O)c1ccco1
→ ?, ?
> CCOC(=O)N1CCN(C(=O)CN2C(=O)CC(C)(C)S(=O)(=O)c3ccccc32)CC1
→ 3%, >57
> Cc1cc2ncn(C(=O)c3c(-c4ccccc4)noc3C)c2cc1C
→ -10%, nt
> COc1ccc(-n2nc(C(=O)N3CCC(C#N)CC3)c3c4ccccc4n(C)c3c2=O)cc1
→ 10%, >57
> COC(=O)C1(S(=O)(=O)C2(C(=O)OC)CCCC2)CCCC1
→ 0%, >57
> O=C(c1ccc2snnc2c1)N1CCSCC1
→ 0%, nt
> Cc1c(NC(=O)CSC2=C(C#N)C(c3ccccc3F)CC(=O)N2)c(=O)n(-c2ccccc2)n1C (stereo not given)
→ -23%, >57
> Cc1ccc(-c2nnc(N3CCN(C(=O)CN4C(=O)c5ccccc5C4=O)CC3)c3ccccc23)cc1
→ nt, >57
> Cc1nnc(SCCC(C)C)[nH]c1=O
→ -5%, nt
> Cc1cc(NC(=O)CN2CCC(n3nnc4cc(C(F)(F)F)ccc43)CC2)no1
→ 6%, >57
> Cc1nc2sc(C(=O)O)c(N)c2c2c1COC(C)(C)C2
→ nt, >57
> Cn1c(=O)oc2cc(S(=O)(=O)NC3CCCCCCC3)ccc21
→ -2%, >57
> NC(N)=NC(N)=Nc1ccc(S(=O)(=O)O)cc1
→ 2%[8 µM], >57
> Cc1cccc(NC(=O)C23CCC(C)(/C(=N/O)C2)C3(C)C)c1 (stereo not given)
→ ?, >57
> CCCCn1c(CN2CCN(C(=O)OCC)CC2)nc2c1c(=O)[nH]c(=O)n2C
→ 2%, >57
> COC(=O)C1CN(S(=O)(=O)c2ccc(C)cc2)CCN1S(=O)(=O)c1ccc(C)cc1 (stereo not given)
→ -6%, >57
> c1ccc(Cc2nnc3sc(-c4ccc5c(c4)OCCO5)nn23)cc1
→ ?, >57
> COC1CCCCC1NS(=O)(=O)c1ccccc1 (stereo not given)
→ -3%, >57
> NC(=O)CSc1nnc(COc2ccccc2)n1C1CCCCC1
→ 4%, >57
> CCN(CC)C(=O)C1=C(C)Nc2nnnn2C1c1cccnc1 (stereo not given)
→ 3%, >57
> O=C(NCc1cccnc1)C1CCCCN1S(=O)(=O)c1ccc(F)cc1 (stereo not given)
→ 9%, >57
> Cc1ccc(NC(=O)C2CCCN(S(=O)(=O)c3cnc[nH]3)C2)c(Br)c1 (stereo not given)
→ 7%, >57

# Complete entries, looked up by structure:
# `COC(=O)C1(CC(C)C)C=C2C(=C(c3ccccc3)C(=O)C2C)CN1` (stereo not given) is listed with LT uptake inh: 1%; Prx2 Sm inh: >57
# `CCOc1ccccc1Oc1c(C)oc2cc(OC(=O)N3CCOCC3)ccc2c1=O` is listed with LT uptake inh: ?; Prx2 Sm inh: >57
# `COc1ccc(-n2nc(C(=O)N3CCC(C#N)CC3)c3c4ccccc4n(C)c3c2=O)cc1` is listed with LT uptake inh: 10%; Prx2 Sm inh: >57

# The listing continues.
# Fields – LT uptake inh, Prx2 Sm inh
> Cc1ccc(C)c(-n2c(CNC(=O)c3ccco3)nnc2SCC(=O)Nc2nnc(C)s2)c1
→ 1%, >57
> Cc1cccc(-c2c3c(=O)n(C)c(=O)n(C)c3cn2-c2ccc(O)cc2)c1
→ -10%, >57
> O=C(OCC(=O)c1c[nH]c2ccccc12)c1ccco1
→ -16%, >57
> CCC[C@H]1C[C@H](C(=O)N[C@H]([C@@H]2O[C@H](SC)[C@@H](O)[C@H](O)[C@@H]2O)[C@H](C)O)N(C)C1
→ 1%[3.58 µM], >57
> COC(=O)[C@@H]1C[C@@]1(C)[C@@H](NC(=O)OCc1ccccc1)c1ccccc1
→ -19%, nt
> COC(=O)[C@@]1(Cc2ccc(F)cc2)[C@H]2c3cc(C(=O)N4CCCC4)n(CCSCCO)c3C[C@H]2CN1C(=O)c1ccccc1
→ ?, >57
> O=c1[nH]c(CN2CCC(c3nc4ccccc4s3)CC2)nc2sc3c(c12)CCC3
→ 3%, >57
> CC(=O)CCc1ccccc1
→ ?, nt
> COc1cccc(N2C(=O)CC(N3CCC(C(N)=O)(N4CCCCC4)CC3)C2=O)c1 (stereo not given)
→ -8%, >57
> O=C(O)C(c1ccccc1)C1(O)CCCC1 (stereo not given)
→ nt, >57
> COc1ccccc1C1CC(=O)Nc2cc3c(cc21)OCCO3 (stereo not given)
→ ?, >57
> Cn1c(SCC(N)=O)nnc1C1CCN(C(=O)NCc2ccccc2)CC1
→ -5%, >57
> Cn1c(=O)c2c(ncn2CCCc2ccccc2)n(C)c1=O
→ -6%, >57
> CN(C)S(=O)(=O)c1ccc(S(=O)(=O)N(CC(=O)Nc2ccccc2)CC2CCCO2)cc1 (stereo not given)
→ -1%, >57
> CCOc1ccccc1-n1c(COc2ccccc2)nnc1SCC(N)=O
→ 0%, >57
> Cc1ccc(NC(=O)COC(=O)CN2CSCC2=O)cc1C
→ 8%, >57
> Cc1cc(SCC(N)=O)nc(SCC(=O)c2ccccc2)n1
→ 9%, >57
> CS(=O)(=O)N1CCCC(C(=O)NCCCN2CCc3ccccc3C2)C1 (stereo not given)
→ -6%, >57
> CCCc1cc(=O)[nH]c(SCC(=O)N2CCN(c3ccc(F)cc3)CC2)n1
→ 15%, >57
> Cc1cc2n(n1)C(c1ccccc1)Nc1ccccc1-2 (stereo not given)
→ ?, >57
> COc1ccc(NC(=O)c2oc3ccc(S(=O)(=O)N4CCC5(CC4)OCCO5)cc3c2C)cc1
→ ?, >57
> CC(C)OC(=O)C[C@H](NC(=O)OC(C)(C)C)c1ccccc1
→ -3%[8 µM], nt
> CN(CC(=O)NCCC1=CCCCC1)S(=O)(=O)c1ccc2c(c1)CCC(=O)N2
→ -6%, >57
> CC1(C)CC(=O)c2cnn(-c3nc4ccccc4[nH]3)c2C1
→ -5%, >57
> CCCCn1c(CN2CCN(c3cccc(Cl)c3)CC2)nc2c1c(=O)[nH]c(=O)n2C
→ -18%, >57

# Not all compounds are listed; count on the stated rates, not on these rows.
